Six1-Eya2 blk: qHTS Assay for Inhibitors of the Six1/Eya2 Interaction; activity change, % (concentration not given with the values); Homeobox protein SIX1 (Homo sapiens) + Protein phosphatase EYA2 (Homo sapiens), …; hit rate 0.56% among 360,000; AlphaScreen GST-Six1/His-Eya2 binding, biochemical; active compounds read low; control for the full effect not named in the record; in the data active = activity change below about -65%; inconclusive = about -30% to -65%; inactive = above about -30%; further: on the % scale 0 is the no-effect control and ±100 the full control effect
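AlphaScreen luminescence read after one hour at 37 °C in darkness. Pin-transferred compounds met GST-Six1 and His-Eya2 protein (5X stock 250 nM/500 nM) plus glutathione donor and Ni-chelate acceptor beads (5X, 50 ug/mL).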
D2 potentiator: Beta-Arrestin HTS for Positive Allosteric Modulators of the Human D2 Dopamine Receptor: Potentiators. D(2) dopamine receptor (Homo sapiens), P14416. DiscoveRx D2 beta-arrestin cells, luminescence, 90 min; 100% = 57 uM dopamine signal. potentiation, % (concentration not given with the values). hit rate 0.23% among 360,000; active = potentiation of 50% or more; inconclusive = 30% to 50%; inactive = 30% or less;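 further: compound concentration not given in the record; tested on top of an EC20 dose of dopamine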
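PathHunter D2 cells, attached overnight at 37 deg C, received compound in DMSO plus dopamine at EC20 (50 nM final) for 90 min at 37 deg C. Beta-arrestin recruitment was read as luminescence after 1 h with detection reagent at ambient temperature.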
PINK1 modulator: A Quantitative High throughput Screen to Identify Chemical Modulators of PINK1 Expression; Potency, µM (doses to about 76.6 µM), without a hit: at the highest dose activation (PINK1 increase), actives largely listed as activators; hit rate 0.2% among 410,000; PINK1 immunofluorescence, high-content cytometry, 24 h; active = well fitted activation curve with a large enough effect; inconclusive = small, poorly fitted or top-dose-only effect; inactive = flat fitted curve, though single readings scatter; cell line not stated here;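 further: potency means the concentration at half of the fitted maximal effect; % of control where 0% means no effect; nearly all actives have a fitted effect of over 65% in size; a mitochondrial uncoupler was the plate control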
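Stable cell line treated 24 h with compounds at 5 concentrations (CCCP controls), then fixed and immunostained for PINK1 plus nuclear and cell stains; PINK1 immunofluorescence quantified by laser-scanning microplate cytometry.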
D2 ag: Beta-Arrestin HTS for Positive Allosteric Modulators of the Human D2 Dopamine Receptor: Agonists | D(2) dopamine receptor (Homo sapiens), P14416 | DiscoveRx PathHunter D2 beta-arrestin, luminescence, 90 min; 100% = 57 uM dopamine signal | activation, % (test concentration not listed) | hit rate 0.084% among 360,000; in the data active = activation above about 40%; inconclusive = about 15% to 40%; inactive = below about 15%; further: compound concentration not given in the record; the text of the record calls up to 30% inactive
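DiscoveRx PathHunter D2 beta-arrestin cells (2,100/well) attached overnight, then compound-stimulated 90 min at 37 C in HBSS/10 mM HEPES/0.1% Tween-20 buffer; beta-galactosidase complementation read by luminescence after 1 h at ambient temperature. Dopamine 57 uM final (EC100) as control.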
TRPML1 ag: qHTS for Agonists of the Human Mucolipin Transient Receptor Potential 1 (TRPML1). Mucolipin-1 (Homo sapiens), Q9GZU1. TRPML1-expressing cells, Ca2+ dye fluorescence, FDSS; host cell line not named in the record; reference of the full effect not given here. activation, % (test concentration not listed). hit rate 0.12% among 410,000; in the data active = activation above about 50%; inconclusive = about 30% to 50%; inactive = below about 30%; further: 0% is about no effect; the text of the record puts the active cut at 80%
Target sequence (Q9GZU1 whole entry, looked up): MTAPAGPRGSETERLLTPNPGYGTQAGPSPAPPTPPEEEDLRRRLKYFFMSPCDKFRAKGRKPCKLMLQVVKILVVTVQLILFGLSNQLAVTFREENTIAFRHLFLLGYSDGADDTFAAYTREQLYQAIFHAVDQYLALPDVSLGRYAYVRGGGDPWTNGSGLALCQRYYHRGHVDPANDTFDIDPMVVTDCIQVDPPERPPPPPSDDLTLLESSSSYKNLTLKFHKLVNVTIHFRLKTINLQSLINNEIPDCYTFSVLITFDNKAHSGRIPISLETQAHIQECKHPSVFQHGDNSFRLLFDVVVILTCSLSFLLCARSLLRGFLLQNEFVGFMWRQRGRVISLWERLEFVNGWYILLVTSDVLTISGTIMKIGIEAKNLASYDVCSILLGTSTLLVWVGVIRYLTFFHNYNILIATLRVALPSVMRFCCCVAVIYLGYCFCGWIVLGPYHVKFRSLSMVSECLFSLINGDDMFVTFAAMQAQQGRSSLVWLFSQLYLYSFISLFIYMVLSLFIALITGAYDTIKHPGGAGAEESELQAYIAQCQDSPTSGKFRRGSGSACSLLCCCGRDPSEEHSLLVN
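Agonist activity was taken from a 110 s kinetic Ca2+ dye read on the FDSS after pinning compounds onto TRPML1-DL cells. The cells were seeded at 1,500/well with Tet inducer, incubated about 16 h, then dye-loaded at room temperature.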
TRPML1 blocker: qHTS for Inhibitors of the Human Mucolipin Transient Receptor Potential 1 (TRPML1) | hit rate 0.02% among 390,000 | TRPML1-inducible cells, Ca2+ dye fluorescence, FDSS; active compounds read low; inhibition of EC80 agonist-evoked calcium signal | activity change, negative = inhibition, % (test concentration not listed); in the data active means activity change below about -50%; inconclusive means about -30% to -50%; inactive means above about -30%;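 further: stimulus is agonist 54-4 at its EC80 concentration; on the % scale 0 is the no-effect control and ±100 the full control effect; compound concentration not given in the record; the text of the record puts the active cut at -80%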
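Tet-induced TRPML1-DL cells loaded with Ca8 no-wash calcium dye were read kinetically on FDSS. Compound addition was followed by EC80 agonist 54-4 (4 uM final); inhibition was read over 110 s.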
Active calls of the source: *; x = no result given; & = joins results of further samples; [ ] = dose if it differs, or a comment.

SMILES	Six1-Eya2 blk	D2 potentiator	PINK1 modulator	D2 ag	TRPML1 ag	TRPML1 blocker
CC1CCN(C2=C(NS(=O)(=O)c3ccc(Cl)cc3)C(=O)c3ccccc3C2=O)CC1	-30	7	-1.7%	3.6	2.1	-4
CC(C)OCCCNC(=O)CCC(=O)NNc1nc2ccccc2c2nc(-c3ccccc3)nn12	-14	8	3.9%	3.2	-0.4	-5
COC(=O)c1c(NC(=O)C2C3CCC(C3)C2C(=O)O)sc2c1CCCCC2 (stereo unspecified)	0	-1	-1.2%	-0.9	0.9	-5
Cc1cc(NC(=O)c2ccccc2)nc(C)n1	12	4	-0.7%	-0.5	-0.8	11
CC(=O)N/N=C(\C)c1cccc(C(F)(F)F)c1	1	-8	0.9%	-2.8	-0.4	-10
Cn1c(C(=O)NCCc2ccccc2)cc2c(=O)n3ccccc3nc21	x	x	-0.1%	x	-0.2	-11
N#CCC(=O)Nc1ccc(C(=O)NCc2cccc(Cl)c2)cc1	-4	-8	-1.3%	0.7	0.5	-7
O=C(NCc1ccco1)c1c(F)c(F)c(F)c(C(=O)NCc2ccco2)c1F	-6	9	4.2%	1.2	-0.4	-19
COc1cccc(CC(=O)OCC(=O)N(C)CC(=O)Nc2ccc(Cl)c(C(F)(F)F)c2)c1	-1	-25	-1.3%	-2.8	1.4	4
CCN(Cc1ccccc1)C(=O)Cn1c(=O)n(-c2ccc(F)c(Cl)c2)c(=O)c2sc3ccccc3c21	x	x	0.4%	x	-0.8	-16
CCN(CC)C(=O)Cn1nc(-c2ccccc2O)nc1SCC(=O)Nc1ccc(OC)cc1	-3	-16	20%[38.3 µM]	-1.1	-0.2	3
CC(=O)c1cccc(N(CC(=O)NC2CCCC2)C(=O)c2csnn2)c1	-1	-8	3.6%	-5.0	0.4	3
O=C(CCc1nc2ccccc2c(=O)[nH]1)N1CCN(c2ccc(F)cc2)CC1	-12	-7	-0.2%	0.0	1.3	20
Cc1cc(C)cc(-n2ccn3cnnc3c2=O)c1	x	x	1.1%	x	-0.2	-19
COc1ccccc1CNC(=O)c1cc(S(=O)(=O)N2CCCCC2)c[nH]1	4	-2	2.1%	4.4	0.9	35
Cc1nc(C)c(C(=O)OCC(=O)NCCc2ccc(F)cc2)s1	3	-67	-3.9%	-1.3	1.4	12
Cc1cc(C)cc(N=Cc2c(O)c3ccccc3oc2=O)c1	9	-17	-0.7%	-0.5	-1.5	-6
C=CCN(C(=O)CNC(=O)c1cccs1)C(C(=O)NC1CCCCC1)c1cccnc1 (stereo unspecified)	6	-1	0.6%	-2.3	-0.6	35
COc1ccccc1N1CCN(CC(=O)Nc2c(C)n[nH]c2C)CC1	3	-21	-1.6%	-2.1	-0.3	2
CCOc1ccc(C(C)=O)cc1CSc1nc2nc(C)cc(C)n2n1	-3	-3	15%	-16	-0.2	2
CS(=O)(=O)N1CCC(C(=O)Nc2ccccc2F)CC1	2	-7	3.9%[38.3 µM]	-1.6	2.1	10
CCC12C(=O)C(CC)(C(c3ccccc3)=C1c1ccccc1)[C@@H]1C(=O)N(c3ccc(C)cc3)C(=O)C12 (stereo partly specified)	1	-10	2.8%	-1.6	1.9	-1
Cc1ccc(CNC(=O)Nc2ccccc2)n1C	4	-3	1.0%	0.7	-0.2	-10
COC(=O)C1=C(C)NC(=O)C1(NS(=O)(=O)c1ccc(NC(C)=O)cc1)C(F)(F)F (stereo unspecified)	5	-1	-5.3%[38.3 µM]	0.8	0.1	28
CC(C)NC(=O)CSc1nncn1-c1ccccc1	1	-6	-3.1%	-2.1	4.2	-1
CCCCCN(C(=O)CCC(=O)OC(C)C(=O)Nc1cccc(C#N)c1)c1c(N)n(CCCC)c(=O)[nH]c1=O (stereo unspecified)	-2	-5	3.2%	-1.8	0.3	17
COc1ccc(OC)c(C2=NS(=O)(=O)N(C)C(C(=O)Nc3ccc(F)cc3F)=C2)c1	-11	-16	-0.8%&-1.2%	-0.2	0.8&1.4	8&9
C=CCNC(=O)CCc1nnc(C2(c3ccc(Cl)cc3)CCC2)o1	18	-8	0.9%	-4.6	0.1	15
COC(=O)c1sc(N2C(=O)C(O)=C(C(=O)c3ccc(C)o3)C2c2cccs2)nc1C (stereo unspecified)	-15	-9	1.0%	-3.0	0.9	7
O=C(CSc1nnc(CNC(=O)c2ccccc2F)o1)NCc1ccco1	0	-6	0.5%	1.7	-0.6	15

Of the compounds above, these contain a cyano group:
SMILES	Six1-Eya2 blk	D2 potentiator	PINK1 modulator	D2 ag	TRPML1 ag	TRPML1 blocker
N#CCC(=O)Nc1ccc(C(=O)NCc2cccc(Cl)c2)cc1	-4	-8	-1.3%	0.7	0.5	-7
CCCCCN(C(=O)CCC(=O)OC(C)C(=O)Nc1cccc(C#N)c1)c1c(N)n(CCCC)c(=O)[nH]c1=O (stereo unspecified)	-2	-5	3.2%	-1.8	0.3	17

The results go on:
SMILES	Six1-Eya2 blk	D2 potentiator	PINK1 modulator	D2 ag	TRPML1 ag	TRPML1 blocker
C[C@@H](C(=O)N[C@H](C(=O)O)c1ccccc1)n1nnc2ccccc2c1=O	1	-1	0.4%	-6.1	-0.8	15
COc1ccc(NC(=O)CSc2nc(-c3cccs3)cc(C(F)(F)F)c2C#N)cc1	x	x	6.5%	x	-0.2	-18
CCC(c1nnnn1CCOC)N(Cc1cc2cc(C)c(C)cc2[nH]c1=O)CC1CCCO1 (stereo unspecified)	0	-7	-1.0%	0.0	-0.3	16
CCCCCCn1c(SCCOC)nc2c1c(=O)[nH]c(=O)n2C	26	-1	0.5%	-0.4	0.1	4
COc1ccccc1OCC(=O)NCCc1nc2ccccc2[nH]1	0	-14	-1.1%	-4.0	0.1	-5
COC(=O)[C@@]1(Cc2ccc(F)cc2)[C@H]2c3cc(C(=O)N(C)C)n(Cc4ccccc4)c3C[C@H]2CN1C(=O)c1ccccc1	-10	-11	4.7%	-3.9	-0.1	-10
CCn1c(=O)n(CC(=O)NCc2ccccc2OC)c(=O)c2ccccc21	5	-12	-3.3%	-3.5	0.1	-10
CCOC(=O)CSc1nnc(NC(=O)c2cccc(S(=O)(=O)N3CCCCCC3)c2)s1	-2	0	-1.7%[38.3 µM]	-0.2	0.4	-12
COc1ccc(N2CCN(C(=O)CNC(=O)Cn3cnc4sc(C)c(C)c4c3=O)CC2)cc1	0	-4	3.6%	-0.2	-0.7	2
COc1ccc(NC(=O)CCc2c(C)nn(-c3ccc(N4CCCC4)nn3)c2C)cc1Cl	x	x	1.0%	x	1.3	1
COc1ccc(OCC(O)Cn2c(Nc3cccc(C)c3)nc3c2c(=O)n(C)c(=O)n3C)cc1 (stereo unspecified)	-18	-6	3.9%	-2.3	1.6	34
O=C(COC(=O)c1ccccn1)NCc1ccccc1	-3	-3	-0.7%[38.3 µM]	-2.7	0.4	-2
CCN(CCCNC(=O)CSc1cc(=O)n(C)c2cc(Cl)ccc12)c1cccc(C)c1	x	x	0.1%	x	-0.1	-7
COc1ccc(CNC(=O)C2Cc3c(-c4cccc(F)c4)ccnc3O2)cc1OC (stereo unspecified)	2	5	3.1%	1.3	-1.0	x
Cc1nnc(NC(=O)c2ccc(S(=O)(=O)C(F)F)cc2)s1	-1	-7	0.1%	-3.5	0.9	38
Cc1ccc(-c2[nH]ncc2CN2CCN(C(=O)c3cccs3)CC2)cc1C	4	-15	-1.6%	6.0	1.1	5
CCCNC(=O)c1ccc(N2CCC3(CC2)CC(c2ccccc2)=NO3)c(NC(=O)c2ccc(Br)cc2)c1	0	-34	1.0%	-0.8	0.4	3
CCOC(=O)c1cc2c(=O)n3ccccc3nc2n(CC(C)C)c1=NC(=O)COc1ccc(Cl)cc1	x	x	3.2%	x	-0.2	19

Filtered by structure, those above containing an aryl thioether with sulfur outside any ring
SMILES	Six1-Eya2 blk	D2 potentiator	PINK1 modulator	D2 ag	TRPML1 ag	TRPML1 blocker
CCN(CC)C(=O)Cn1nc(-c2ccccc2O)nc1SCC(=O)Nc1ccc(OC)cc1	-3	-16	20%[38.3 µM]	-1.1	-0.2	3
CCOc1ccc(C(C)=O)cc1CSc1nc2nc(C)cc(C)n2n1	-3	-3	15%	-16	-0.2	2
CC(C)NC(=O)CSc1nncn1-c1ccccc1	1	-6	-3.1%	-2.1	4.2	-1
O=C(CSc1nnc(CNC(=O)c2ccccc2F)o1)NCc1ccco1	0	-6	0.5%	1.7	-0.6	15
COc1ccc(NC(=O)CSc2nc(-c3cccs3)cc(C(F)(F)F)c2C#N)cc1	x	x	6.5%	x	-0.2	-18
CCCCCCn1c(SCCOC)nc2c1c(=O)[nH]c(=O)n2C	26	-1	0.5%	-0.4	0.1	4
CCOC(=O)CSc1nnc(NC(=O)c2cccc(S(=O)(=O)N3CCCCCC3)c2)s1	-2	0	-1.7%[38.3 µM]	-0.2	0.4	-12
CCN(CCCNC(=O)CSc1cc(=O)n(C)c2cc(Cl)ccc12)c1cccc(C)c1	x	x	0.1%	x	-0.1	-7

Screens as filed in PubChem.
